# GLA inh pH 4.5: inhibitors of human alpha-galactosidase A at pH 4.5; P06280; purified enzyme, 4-MU-alpha-Gal fluorescence, pH 4.5; activity change, negative = inhibition, % at 105 µM; 230,000 tested, under 10 active; inconclusive = small, poorly fitted or top-dose-only inhibition, or a rising curve; inactive = flat fitted curve, though single readings scatter; no compound was filed as active;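 further: 0% = full activity with enzyme and -100% = basal without enzyme; dose as in the result columns while the protocol names 77 µM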
# Rango dissoc inh: inhibitors of RanGTP-induced Rango-importin beta complex dissociation | O95149+P62826 | Biochemical FRET Rango-importin beta, RanGTP-induced dissociation | Potency, µM (top dose mostly 46.1 µM), without a hit: at the top dose activity change, negative = inhibition | actives 0.071% (n = 340,000) | AID 540253; active means falling FRET ratio curve, often poorly fitted, with flat reads before Ran was added; inconclusive means other falling curves, or compound fluorescence or quenching; inactive means flat or rising ratio curve;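 further: potency means the concentration at half of the fitted maximal effect; % of control where 0% means no effect; nearly all actives have a fitted effect of over 45% in size; -100% = wells without RanGTP and RCC1; the record marks most hits as doubtful in a second field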
#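 Compounds sat 5 min at room temperature with 0.1 uM Rango biosensor plus 0.25 uM importin beta, then FRET pre-read. RanGTP-RCC1 (0.6 uM Ran, 2mM GTP, 0.2 uM RCC1) added for 45 min, and the CFP/YFP post-read measured blocked complex dissociation.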
# Rango-impB inh: inhibitors of Rango-importin beta complex formation; Rango CFP/YFP FRET sensor + importin beta, 45 min; Potency, µM (doses to about 92.2 µM), without a hit: top-dose inhibition of complex formation; actives 0.031% (n = 340,000); AID 540263; active = rising FRET ratio curve, often small or poorly fitted; inconclusive = mostly compound fluorescence or quenching in the first reads; inactive = flat curves in all reads;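 further: potency means the concentration at half of the fitted maximal effect; 0% = DMSO wells and 100% = buffer wells lacking importin beta; nearly all actives have a fitted effect of over 15% in size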
# Target sequence (Q14974 whole entry, looked up): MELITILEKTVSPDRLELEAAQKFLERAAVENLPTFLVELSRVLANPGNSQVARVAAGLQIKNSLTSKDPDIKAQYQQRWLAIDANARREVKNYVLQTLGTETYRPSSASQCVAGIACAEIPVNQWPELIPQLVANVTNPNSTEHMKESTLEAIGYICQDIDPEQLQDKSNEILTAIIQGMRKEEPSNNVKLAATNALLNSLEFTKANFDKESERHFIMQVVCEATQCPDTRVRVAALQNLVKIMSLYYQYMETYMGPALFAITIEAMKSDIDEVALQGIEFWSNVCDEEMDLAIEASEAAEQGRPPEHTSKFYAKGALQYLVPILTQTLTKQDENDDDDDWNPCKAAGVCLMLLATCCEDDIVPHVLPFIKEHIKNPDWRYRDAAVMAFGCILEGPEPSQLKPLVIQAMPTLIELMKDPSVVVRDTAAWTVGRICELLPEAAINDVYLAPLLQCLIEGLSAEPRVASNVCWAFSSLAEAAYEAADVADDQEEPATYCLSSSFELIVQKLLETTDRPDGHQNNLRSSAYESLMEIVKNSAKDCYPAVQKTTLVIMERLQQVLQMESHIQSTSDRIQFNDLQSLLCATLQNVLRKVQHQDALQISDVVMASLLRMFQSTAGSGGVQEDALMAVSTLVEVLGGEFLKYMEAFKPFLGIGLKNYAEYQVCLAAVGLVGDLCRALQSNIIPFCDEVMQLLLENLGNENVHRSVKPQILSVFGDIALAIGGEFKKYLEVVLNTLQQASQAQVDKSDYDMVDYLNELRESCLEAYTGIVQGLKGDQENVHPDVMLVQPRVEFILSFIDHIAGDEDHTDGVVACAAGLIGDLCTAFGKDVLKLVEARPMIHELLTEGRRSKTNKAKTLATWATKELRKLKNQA
#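 Inhibition scored from the CFP 486 nm/YFP 530 nm FRET ratio 45 min after adding 0.125 microM importin beta to 50 nM Rango biosensor preincubated 5 min with compound (room temperature, PBS with DTT, Tween-20, BSA). No-importin wells as positive control.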
# miR-21 FLuc: miR-21 reporter, rising signal; 340,000 tested, under 10 active; AID 2288; HeLa miR-21 FLuc reporter, luciferase, 48 h; Potency, µM (titrated, usually from 38.3 µM), without a hit: top-dose reporter change, positive = more light; active = well fitted rising curve with a large enough effect; inconclusive = small, poorly fitted or top-dose-only effect; inactive = no such curve, though single readings can be large or run the other way;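 further: % of control where 0% means no effect; miR-21 action dims this reporter so a rising signal means less miR-21 action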
#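 Luminescence from a firefly luciferase reporter carrying a miR-21 binding site downstream, stably expressed under a CMV promoter in HeLa cells that make miR-21 endogenously, reports miRNA modulation after 48 h compound exposure up to approximately 40uM final.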
# The depositor's hits bear a star; ? = inconclusive; . = not tested or not shown; & = joins results of further samples; [ ] = remark or other dose.
# Preview:
# Every second line gives: GLA inh pH 4.5	Rango dissoc inh	Rango-impB inh	miR-21 FLuc
- COc1ccc(CNC(=O)CN2CCN(S(=O)(=O)c3ccccc3)CC2)cc1
    .	13%	-0.1%	.
- Cc1ccc(-n2nc3c(c2NC(=O)c2ccc(F)c(F)c2)CS(=O)(=O)C3)cc1
    .	-1%	-0.8%	-2%
- CN(C)CCCN(C(=O)c1ccco1)c1nc2c(F)cccc2s1
    -22	-10%	-0.3%	-23%

# Results (from the top)
# Every second line gives: GLA inh pH 4.5	Rango dissoc inh	Rango-impB inh	miR-21 FLuc
- COc1ccc(CNC(=O)CN2CCN(S(=O)(=O)c3ccccc3)CC2)cc1
    .	13%	-0.1%	.
- Cc1ccc(-n2nc3c(c2NC(=O)c2ccc(F)c(F)c2)CS(=O)(=O)C3)cc1
    .	-1%	-0.8%	-2%
- CN(C)CCCN(C(=O)c1ccco1)c1nc2c(F)cccc2s1
    -22	-10%	-0.3%	-23%
- COc1ccc(C)cc1NC(=O)CCS(=O)(=O)c1cc2c(cc1Cl)NC(=O)CO2
    .	11%	0.2%	0%
- CCOC(=O)C1CCCN(C(=O)c2ccccc2[N+](=O)[O-])C1 (configuration not stated)
    2	-6%	2.1%	0%
- CCN1CCN(S(=O)(=O)c2ccc(S(=O)(=O)NC3CC3)cc2)CC1
    .	-15%	4.3%	0%
- Cc1ccn(S(=O)(=O)c2ccc3oc(=O)ccc3c2)n1
    .	-15%	0.1%	-3%
- COc1ccc(N(CC(=O)N/N=C/c2ccco2)S(=O)(=O)c2ccccc2)cc1Cl
    -13	-13%	-1.6%	-1%
- CC(=O)Oc1ccccc1C(=O)Oc1ccccc1C(=O)O
    4&-1	-2%	1.2%	.
- COC(=O)c1ccc(N2CCN(C)CC2)c(NC(=O)COc2cccc(C)c2)c1
    .	-10%	-1.2%	-2%
- COc1ccc(OCC(N)=O)cc1
    -5	0%	-1.1%	0%
- COc1ccccc1N1CCN(S(=O)(=O)c2ccc3c(c2)NC(=O)C(C)S3)CC1 (configuration not stated)
    .	1%	4.5%	13%
- CN(CC(=O)Nc1ccccc1Br)C(=O)CCC1CCCC1
    .	10%	1.8%	-47%
- COc1cccc(-c2cc(C(=O)N3CCOCC3)no2)c1
    .	-11%	5.2%	-9%
- COc1ccc(CNCC(=O)Nc2cc(C)nn2-c2nc(C)cc(C)n2)cc1OC
    0	-4%	0.2%	4%

# Record cards, as listed above:
# COc1cccc(-c2cc(C(=O)N3CCOCC3)no2)c1 across the screens: GLA inh pH 4.5 = .; Rango dissoc inh = -11%; Rango-impB inh = 5.2%; miR-21 FLuc = -9%
# Cc1ccn(S(=O)(=O)c2ccc3oc(=O)ccc3c2)n1 across the screens: GLA inh pH 4.5 = .; Rango dissoc inh = -15%; Rango-impB inh = 0.1%; miR-21 FLuc = -3%

# Continued.
# Every second line gives: GLA inh pH 4.5	Rango dissoc inh	Rango-impB inh	miR-21 FLuc
- CC(=O)NCc1cn2c(C)csc2n1
    6	11%	0.0%	-6%
- C/C(=N\NC(=O)c1cc(-c2cccc(OC(C)C)c2)nc2ccccc12)c1cccnc1
    .	17%	3.0%	6%
- COc1ccc2nc(NC(=O)CCNC(=O)c3ccco3)sc2c1
    .	1%	-0.1%	.
- CCC1CCc2c(n(C)c3ccccc3c2=O)O1 (configuration not stated)
    12	?	-2.2%	-23%
- CC(=O)Oc1ccc2c(C)cc(=O)[nH]c2c1
    ?	3%	1.5%	-5%
- CN1CCCC2(CCCN(Cc3nc(Cc4cccc(C(F)(F)F)c4)no3)C2)C1 (configuration not stated)
    -5	-1%	0.2%	-2%
- O=C(COC(=O)CNC(=O)c1ccccc1F)Nc1nnc(-c2ccccc2)o1
    .	0%	5.4%	.
- CCOc1cc(/C=N/NC(=O)c2cc(-c3ccccc3)nc3ccccc23)ccc1O
    .	-5%	-2.0%	11%
- COc1ccccc1N1CCN(C2CCCN(C(=O)CCc3c(C)noc3C)C2)CC1 (configuration not stated)
    .	6%	-0.6%	1%
- COc1ccc(S(=O)(=O)n2[nH]c(=O)c(CCO)c2C)cc1
    .	13%	0.6%	3%
- CCOCCCn1c(=S)[nH]c2cc(C(=O)N3CCC(C(N)=O)(N4CCCCC4)CC3)ccc2c1=O
    -8	25%	0.8%	1%
- CN(C1CCCCC1)S(=O)(=O)CCNC(=O)c1ccccc1
    .	-7%	0.1%	.
- CN1CCOC(=O)/C1=N/Nc1cc(Cl)ccc1Cl
    3	-14%	1.3%	-1%
- Cc1cccc2c(CCNC(=O)c3ccc([N+](=O)[O-])cc3)c[nH]c12
    -16	?	-1.1%	-13%
- CCN(CC)c1ccc(-c2nnc(SCC(=O)N(CCOC)c3c(N)n(CC(C)C)c(=O)[nH]c3=O)o2)cc1
    .	2%	-3.2%	.
- Cc1nc(N2CCCC2C(=O)O)c2oc3ccccc3c2n1 (configuration not stated)
    -3	-23%	?	-2%
- COCCn1c(=O)[nH]c2cc(C(=O)N3CCN(c4cccc(Cl)c4)CC3)ccc2c1=O
    .	-12%	2.5%	6%
- O=C(c1cc(-c2cccs2)on1)N1CCN(c2ccc(F)cc2)CC1
    0	-5%	-1.4%	-3%
- CC(C)(C)[C@H](N)C(=O)N[C@H]1CCC2C3CC=C4C[C@@H](O)CC[C@]4(C)C3CC[C@@]21C (some centres not stated)
    .	3%	-0.7%	.
- NCC1OC(n2cnc3c(N)ncnc32)CC1O (configuration not stated)
    .	13%	-1.3%	.
- COc1ccccc1NC(=O)c1sc2ncn(Cc3cccc(C)c3)c(=O)c2c1C
    -1	2%	6.7%	-5%
- NS(=O)(=O)c1cccc(NC(=S)NC(=O)C23CC4CC(CC(C4)C2)C3)c1
    -8	8%	-0.4%	-50%
- COCCn1c(SCC(=O)Nc2nc3ccccc3s2)nnc1-c1ccoc1C
    .	0%	?	.
- CCc1noc(C)c1C(=O)Nc1cc(S(=O)(=O)N2CCCCC2)ccc1N(C)C
    .	22%	-2.7%	.
- N/C(CCS(=O)(=O)c1ccc(Cl)cc1)=N\OC(=O)c1ccc(Cl)cc1
    -1	-10%	0.1%	-2%
- Cc1cc(C(=O)Nc2ccc(C)c(S(=O)(=O)N3CCOCC3)c2)c(C)o1
    -1	17%	-5.3%	0%
- COC(=O)C1=C(C)N(C)C(C)=C(C(=O)OC)C1c1ccncc1
    11	12%	5.0%	0%
- COc1ccc(NC(=O)c2cccc3c(Br)cccc23)cc1
    .	5%	0.7%	2%
- CSc1c2c(nc3ncnn13)CCC2
    2	14%	0.6%	0%
- CCCCCCCCSc1nnc(/N=C/N(C)C)s1
    3	9%	4.1%	0%
- O=c1cc(O)nc(SCc2ccccc2Cl)[nH]1
    7	0%	5.6%	2%
- CCn1c(SCC(=O)N2CCN(c3cccc(Cl)c3)CC2)nc2ccccc2c1=O
    1	9%	?	-1%
- Cc1cc(NC(=O)Cn2cnc3sccc3c2=O)no1
    .	-2%	0.0%	.
- CC(=O)c1ccc(S(=O)(=O)N(Cc2cc3cc4c(cc3[nH]c2=O)OCCO4)CC2CCCO2)cc1 (configuration not stated)
    5	-20%	0.2%	-43%
- COc1ccc(NC(=O)C(=O)NCC2CCCN2S(=O)(=O)c2cc(C)ccc2C)cc1 (configuration not stated)
    .	-13%	2.0%	.
- CC(C)c1cc(C(=O)Nc2cccc(Cl)c2)no1
    -9	8%	-2.8%	-35%
- CCC(C)c1ccc(NC(=S)N2CCN(C(=O)C3CCCO3)CC2)cc1 (configuration not stated)
    .	-1%	0.0%	5%
- COc1cccc(N/C(N)=N/c2nc(C(F)(F)F)cc(C(F)(F)F)n2)c1
    -4	22%	-1.0%	3%
- COc1cccc(CNC(=O)c2ccc(S(=O)(=O)N3CCOCC3)cc2)c1
    .	2%	-1.7%	.
- CCOC(=O)C(C)(C)Sc1nc2c(cnn2-c2ccc(F)cc2)c(=O)[nH]1
    .	8%	-0.1%	-5%
- CC(=O)N1CCOc2ccc(S(=O)(=O)NCCc3ccc(C)cc3)cc21
    .	-4%	-2.6%	-1%
- O=[N+]([O-])c1ccc2nc(C3CCCCC3)[nH]c2c1
    .	-9%	4.5%	-34%
- CCOc1ccccc1NC(=S)N(CCN(C)C)C(C)c1ccncc1 (configuration not stated)
    7	-5%	0.3%	-5%
- Cc1ccc2nc(-c3cccc(S(=O)(=O)N(C)C)c3)cn2c1
    0	1%	-2.4%	-31%
- Cn1ncc(Cl)c1C(=O)N1CCCc2ccccc21
    7	7%	-2.5%	-2%
- CSc1ccc(CCNC(=O)CCc2nnc3ccc(N4CCCC4)nn23)cc1
    .	17%	5.6%	3%
- S=C(N=Nc1ccccc1)NNc1ccccc1
    -7	30%	-1.0%	-64%
- CN1C(=O)[C@@H]2[C@H](C1=O)[C@@H]1C(=O)Nc3ccccc3C(=O)N1[C@@H]2c1cccc(Br)c1
    .	-27%	?	.
- CCCOc1cccc(C2/C(=C(\O)c3ccc4c(c3)OCCO4)C(=O)C(=O)N2CCCn2ccnc2)c1 (configuration not stated)
    .	1%	-0.3%	-1%
- CCCCCOc1ccc(C(=O)OCC(=O)Nc2cc(C)on2)cc1
    .	25%	0.0%	.
- CC(=O)c1c(C)[nH]c(C(=O)NNC(=O)COc2cc(C)ccc2C(C)C)c1C
    .	-7%	-2.1%	.
- COc1ccc(Cn2nnnc2CN2CCN(c3ccc(OC)cc3)CC2)cc1
    -1	23%	-2.5%	-1%
- CCOC(=O)C1CCN(c2cc3c(cc2NC(=O)c2ccccc2OCC)n(C)c(=O)n3C)CC1
    .	0%	-1.1%	-2%
- Cc1ccc2[nH]c(C)c(CCNC(=O)c3c(N)no[n+]3[O-])c2c1
    -2[21.1 µM]	7%	-2.1%	2%
- Cc1ccc(CN2C(=O)C(Cc3ccccc3)Nc3ncnc(N4CCN(c5ccccc5)CC4)c32)cc1 (configuration not stated)
    .	-13%	-0.8%	.
- Cc1ccc(S(=O)(=O)N2CCCC(c3nc(-c4ccc(C)o4)no3)C2)cc1 (configuration not stated)
    -4	-7%	2.7%	1%
- CC(=O)Nc1cccc(/C(C)=N/NC(=O)c2cccc(S(=O)(=O)N3CCOCC3)c2)c1
    6	-4%	0.9%	-2%
- Fc1ccccc1N1CCN(Cc2nc(-c3ccccc3)no2)CC1
    -3	12%	-1.2%	-4%
- CCC(=O)c1ccc(OCC(=O)NCc2ccccc2CN2CCCC2)cc1
    .	-9%	0.8%	.
- CCc1cc2c(SCc3nc4sc(C(C)=O)c(C)c4c(=O)[nH]3)ncnc2s1
    -1	-12%	1.8%	-6%

# More structures follow.
# Every second line gives: GLA inh pH 4.5	Rango dissoc inh	Rango-impB inh	miR-21 FLuc
- Cc1ccc(NC(=S)NNC(=O)c2ccccc2OC(F)F)cc1
    -6	0%	-0.9%	14%
- CCN(CC)CCC(=O)Nc1ccc2c(c1)N(C(=O)CN(CC)CC)c1ccccc1CC2
    -6	-16%	-0.3%	-7%
- COc1ccc(NC(=S)NC(NC(=O)C(C)C)C(Cl)(Cl)Cl)c([N+](=O)[O-])c1 (configuration not stated)
    -3	23%	-1.5%	-1%
- COc1ccc(CN2CCC(n3nccc3NC(=O)C3CCCC3)CC2)cc1
    .	7%	1.2%	-3%
- CCOC(=O)c1ccc(N2CSC3=C(C#N)C(c4cccs4)CC(=O)N3C2)cc1 (configuration not stated)
    -2	-11%	?	-10%
- COc1ccc(CCn2c(C)cc(C(=O)CN3C(=O)C(=O)N(Cc4ccco4)C3=O)c2C)cc1
    .	0%	?	.
- Cc1ccc(NC(=O)C2CCCN(S(=O)(=O)c3cccnc3)C2)cc1C (configuration not stated)
    .	-13%	-0.5%	12%
- O=C(O)c1ccccc1C(=O)c1ccc2oc(=O)[nH]c2c1
    .	-3%	-1.4%	.
- COc1ccc(NC(=O)c2cc3ccccc3o2)cc1S(=O)(=O)N1CCCCC1
    .	0%	0.6%	.
- COC(=O)c1ccc(NC(=O)c2cccc(NC(=O)c3ccco3)c2)cc1
    .	1%	1.0%	-7%
- O=C(O)CCCn1c(=S)[nH]c2c(sc3ccc([N+](=O)[O-])cc32)c1=O
    -2	5%	0.8%	2%

# High-throughput results (PubChem)

# This is a subset; count on the stated rates, not on these rows.
